Compound activity deposited in PubChem BioAssay by NMMLSC.
Bead autofluor: counter-screen for toxin protease inhibitors: compound fluorescence. fluorescence intensity (test concentration not listed). AID 624483. 360,000 compounds, 3.1% hits. compound autofluorescence counterscreen, microsphere flow cytometry; hits give high values;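 active = at least 3 SD above the mean of all compounds, about 16000 in these data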;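 note: 100 nL of 1 mM stock went into each well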
Active calls of the source: *. This is a subset. The share of hits here may be higher or lower than overall.

Start of the data: the first 5 entries, ahead of the listing:
SMILES	Bead autofluor
C[C@H](O)[C@@H]1C(=O)N2CCc3c([nH]c4ccccc34)[C@@H]2C[C@@H]1N(C)C(=O)c1ccco1	4553
O=S(=O)(c1ccc(SCc2c(F)cccc2Cl)nc1)N1CCCC1	3396
CCC(CC)C(=O)N(C)c1c(C)nc2c(OCc3ccc(Cl)cc3Cl)cccn12	3782
Cc1ccc([C@H]2C[C@@H](O)[C@H](n3cc(C4CC4)nn3)CN2C(=O)c2cccs2)cc1	3619
Cc1occc1C(=O)N(C)CC1CCCN(CCc2ccc(Cl)cc2)C1 (centres undefined)	3307

All compounds of this part (from the top)
SMILES	Bead autofluor
C[C@H](O)[C@@H]1C(=O)N2CCc3c([nH]c4ccccc34)[C@@H]2C[C@@H]1N(C)C(=O)c1ccco1	4553
O=S(=O)(c1ccc(SCc2c(F)cccc2Cl)nc1)N1CCCC1	3396
CCC(CC)C(=O)N(C)c1c(C)nc2c(OCc3ccc(Cl)cc3Cl)cccn12	3782
Cc1ccc([C@H]2C[C@@H](O)[C@H](n3cc(C4CC4)nn3)CN2C(=O)c2cccs2)cc1	3619
Cc1occc1C(=O)N(C)CC1CCCN(CCc2ccc(Cl)cc2)C1 (centres undefined)	3307
C[C@@H]1CN([C@H](C)CO)C(=O)CCCn2nncc2CO[C@@H]1CN(C)S(=O)(=O)c1ccc(Oc2ccccc2)cc1	3956
CCOc1ccc(Cl)cc1-c1cc(C(=O)Nc2cc(OC)ccc2OC)[nH]n1	3893
NC(Cc1ccccc1Cl)c1nn[nH]n1 (centres undefined)	3698
C[C@@H]1CCCCO[C@H](CN(C)C(=O)Nc2ccc(F)cc2)[C@@H](C)CN([C@H](C)CO)C(=O)c2cc(N(C)C)ccc2O1	3754
O=C1NC(Cc2ccccc2)c2nc3ccc(Cl)cc3c(=O)n2-c2cc3ccccc3cc21 (centres undefined)	3734
Cc1ccc([C@H]2C[C@@H](O)[C@H](n3cc(COC(=O)c4ccccc4)nn3)CN2Cc2cccs2)cc1	3589
COCCN(CCOC)Cc1cc(=O)oc2cc(OC)ccc12	5758
CCc1ccccc1NC(=O)CN1CCN(C(=O)c2cc(C3CC3)nn2-c2ccccc2)CC1	3954
COc1cc(F)ccc1-c1cc(C(=O)Nc2ccc(NC(C)=O)cc2)[nH]n1	3782
Cc1cncc(NCc2ccc3c(c2)OCO3)n1	3837
COc1ccc(CN2C[C@@H](CO)O[C@@H](n3cnc4c(NC5CCC5)ncnc43)C2)cc1	3820
O=C1CCC2CN3CCc4c([nH]c5ccccc45)C3CC2C1 (centres undefined)	3835
Cc1ccc([C@H]2C[C@H](n3cc(COC(=O)c4ccccc4)nn3)[C@@H](O)CN2CC2CCCCC2)cc1	3179
COc1ccc(CCNC(=O)Nc2ccc3c(c2)c(=O)n(C)n3CC=C(C)C)cc1OC	2765
CCCc1nc2ccc(Br)cn2c1Cc1ccccc1OC	7632
CC(C)Oc1cc(F)ccc1-c1cc(C(=O)NCCCn2ccnc2)[nH]n1	3664
COc1ccc([C@H]2N[C@]3(CCCN(Cc4ccc(Br)cc4)C3=O)[C@H]3C(=O)N(C)C(=O)[C@@H]23)cc1	3370
Cc1ccc(S(=O)(=O)NN=CC2(c3ccccc3)CC2)cc1	3571
O=C(OCc1cn([C@H]2C[C@H](c3ccccc3)N(Cc3cccs3)C[C@@H]2O)nn1)c1ccccc1	3495
C[C@H]1CN([C@@H](C)CO)C(=O)CCCn2nncc2CO[C@H]1CN(C)C(=O)c1ccc2ccn(C)c2c1	3095
CC1=C(C(=O)N(C(C)C)C(C)C)CC(CC(=O)NC2CC2)C(=O)N1CCCN1CCCC1=O (centres undefined)	5587
CCc1nc2ccc(C(=O)N(C)Cc3ccco3)cn2c1N(CC)C(=O)NCCc1ccccc1	3902
C[C@@H]1CN([C@@H](C)CO)C(=O)CCCn2nncc2CO[C@H]1CN(C)C(=O)NC1CCCCC1	3517
C[C@@H]1CN([C@@H](C)CO)S(=O)(=O)c2ccc(Br)cc2O[C@@H]1CN(C)C(=O)c1ccccn1	2831
c1cc(-c2ccsc2)n2ccnc2c1	3931

Continuation.
SMILES	Bead autofluor
CC(=O)N1C[C@H]2CON(C)[C@H]2C[C@H]1c1ccccc1	4369
CCCNC(=O)C1(C)CCN(Cc2csc(-c3ccc(Cl)cc3)n2)C1 (centres undefined)	3722
CC1(C(=O)NS(=O)(=O)c2ccccc2C(F)(F)F)CCN1C(=O)COc1ccc(Cl)cc1 (centres undefined)	3671
COC(=O)[C@]12CCCCC=C1N(Cc1ccc(Cl)cc1Cl)C(=O)[C@H](CC(=O)NCCCCc1ccccc1)C2	6044
CCNC(=O)C1(C)CCCN1C(=O)c1ccc2c(c1)OCO2 (centres undefined)	3857
CCCCCCN1C[C@@H](O)[C@H](n2cc(-c3ccc(F)cc3)nn2)C[C@@H]1c1ccc(OC)cc1	3697
O=P(O)(Cc1ccccc1)c1ccccc1	3381
CCNC(=O)Nc1cc(S(=O)(=O)N2CCOCC2)ccc1N1CCCCC1	3609
Cc1nc(NC(=O)C(C)(C)C)sc1C(=O)Cn1cc(CCc2ccccc2)nn1	6038
Cc1ccccc1NC(=O)Cc1nc(COC(=O)CNC(=O)c2ccc(Cl)cc2Cl)cs1	3825
COc1ccc(C(=O)CC(Sc2ccccc2N)c2ccc(OC)cc2)cc1 (centres undefined)	2916
COc1ccc(OC(=O)OCc2ccccc2)cc1	3633
O=c1n2c(c(O)n1C1CCCCC1)C(c1ccccc1)=Nc1ccccc1C2	5980
CCc1ccc2cc(C)cnc2n1	5856
Cc1cccc(NC(=O)c2nc[nH]c2C(=O)N[C@@H](C)CO)c1	3505
COc1ccc(C(C)(O)c2nc(-c3ccc(F)c(Cl)c3)cs2)cc1 (centres undefined)	3548
CCOC(=O)[C@]12CCCC=C1N(Cc1ccco1)C(=O)[C@H](CC(=O)N1CCN(C(=O)C3CC3)CC1)C2	5641
NCc1csc(NC(=O)Nc2cccc(Cl)c2)n1	3770
CC1(C)CCCC2(C)C1CCC1(C)OC(=O)CCC12 (centres undefined)	5402
CCOC(=O)C1(C)CCCCCN1C(=O)c1ccc(OC)cc1 (centres undefined)	3753
COc1cccc(CNC(=O)[C@@H]2CCCN2C(=O)OC(C)(C)C)c1	4306
Cn1nc(C(C)(C)C)cc1C(=O)N1CCCCC1c1cc(C(=O)Nc2ccccc2)no1 (centres undefined)	4424
COc1ccc(-c2nc3c(Cl)cc(C(F)(F)F)cn3c2Cc2cccc(F)c2)cc1OC	5228
CC1(C(=O)Nc2cccc(Oc3ccccc3)c2)CCN1Cc1cc2ccccc2o1 (centres undefined)	3330
COCOc1cccc(CN2CCC2(C)C(=O)Nc2ccc(C)c(O)c2)c1 (centres undefined)	3505
C[C@@H]1CN([C@H](C)CO)C(=O)CCCn2nncc2CO[C@H]1CN(C)C(=O)Nc1ccnc(N2CCOCC2)c1	3441
CC1(C)OC(=O)C2=C(C[C@@H](C3CC3)O[C@@H]2C2CC2)O1	6372
CC1CCN(C(=O)CSc2nnc(-c3ccco3)n2N)CC1	3633
CC(C)/C=C/C(=O)N1CCC(N2CCC(C(=O)NCC3CCCO3)CC2)CC1 (centres undefined)	2907
C[C@@H]1CN([C@@H](C)CO)C(=O)CCCn2nncc2CO[C@H]1CN(C)Cc1cccc(O)c1	3038

Going on with the list.
SMILES | Bead autofluor
O=C1NC[C@@H](CCCCN2CCN(CC3CCCCC3)C(=O)C2=O)N(Cc2ccccc2)C1=O | 5242
COc1ccccc1NC(=O)CN(Cc1ccco1)C(=O)c1cc(Cl)c(OC)c(OC)c1 | 3692
CC(C)CNC(=O)C1(C)CCCN1C(=O)c1ccc2c(c1)CCO2 (centres undefined) | 3790
CC1CCC2(CC1)NC(=O)N(CC(=O)Nc1ccc(N3CCCCC3)cc1)C2=O (centres undefined) | 3967
CCCCCCn1cc(CN2CC(N3CCSCC3)CS2(=O)=O)nn1 (centres undefined) | 5506
CC(C)N1CCC1(C)C(=O)Nc1ccc(-n2cccc2)cc1 (centres undefined) | 3847
Cc1ccccc1-c1ccc2c(c1)O[C@@H](CN(C)Cc1ccc(C(=O)O)cc1)[C@@H](C)CN([C@H](C)CO)S2(=O)=O | 3561
Cc1ccccc1[C@H](NC1c2ccccc2C=Cc2ccccc21)P(=O)(c1ccccc1)c1ccccc1 | 6411
N#Cc1ccc(S(=O)(=O)N2CCCCC2c2cc(C(=O)NCc3cccnc3)no2)cc1 (centres undefined) | 3621
COc1cccc(-c2oc3c(c2-c2ccc(Br)nc2)C(O)CCC3)c1 (centres undefined) | 4138
Cc1noc(C)c1S(=O)(=O)N(C)C[C@H]1OCc2cnnn2CCCC(=O)N([C@H](C)CO)C[C@H]1C | 3792
CCCC(C)(C)C(=O)N1CCC1(C)C(=O)NS(=O)(=O)c1ccccc1Cl (centres undefined) | 4160
CCOc1ccc(CCN2C(=S)N([C@@H](CC(C)C)CN3CCC[C@@H]3CN3C(=S)NC[C@@H]3Cc3ccc(O)cc3)C[C@@H]2Cc2ccc(O)cc2)cc1 | 6231
CCCNC(=O)c1cc(C2CCCN(S(=O)(=O)c3cccc4cccnc34)C2)on1 (centres undefined) | 4170
COCCN1C[C@@H](CO)O[C@@H](n2cnc3c(N4CCN(CCO)CC4)ncnc32)C1 | 3041
Cc1cc(C)cc(Cn2c3ccc(NC(=S)NC4CCCCC4)cc3c(=O)n2C)c1 | 3460
C[C@@H](c1ccccc1)N1C[C@H](COCc2ccccc2)Oc2cc(N3CCC[C@H]3C(N)=O)ccc2S1(=O)=O | 4433
COc1ccc(CNC(=O)N2CCc3nc(Nc4cc(OC)c(OC)c(OC)c4)ncc3C2)cc1 | 3543
CCOC(=O)C1CCCN(C(=O)c2cccc(Cl)c2)CC1 (centres undefined) | 3536
OCC[C@@H]1C[C@H](O)[C@@H](O)[C@]2(OCc3ccc4ccccc4c32)O1 | 2924

An excerpt of these results, with each value named.
Compound: CCOC(=O)C1CCCN(C(=O)c2cccc(Cl)c2)CC1 (centres undefined)
  Bead autofluor: 3536
Compound: OCC[C@@H]1C[C@H](O)[C@@H](O)[C@]2(OCc3ccc4ccccc4c32)O1
  Bead autofluor: 2924

New compounds follow.
SMILES | Bead autofluor
CCCCCCN1C[C@@H](O)[C@H](n2cc(COC(=O)c3ccccc3)nn2)C[C@@H]1c1ccc(Cl)cc1 | 3773
CC1(C(=O)Nc2ccc3c(c2)OCCO3)CCN1C(=O)C/C=C/c1ccccc1 (centres undefined) | 2972
CC1(C)OC(=O)C2=C(C[C@@H](C3CCCC3)O[C@H]2CCc2cccc(Cl)c2)O1 | 5445
OC(c1cc(F)cc(Cl)c1)c1ncc(-c2cccc(C(F)(F)F)c2)[nH]1 (centres undefined) | 4165
COC[C@@H]1CCCN1c1ccc2c(c1)O[C@@H](COCc1ccccc1)CN([C@@H](C)c1ccccc1)S2(=O)=O | 4426
CN(C)CCN1CCN(C2CN(Cc3cn(Cc4cccc(C(F)(F)F)c4)nn3)S(=O)(=O)C2)CC1 (centres undefined) | 6741
O=C(CN1CCN(Cc2ccccc2)CC1)Nc1cccc(Cl)c1Cl | 2915
CCOC(=O)[C@]12Cc3cc(OC)ccc3[C@H]1N(C)C(=O)c1ccccc12 | 5402
COCCNc1nc2cc(-c3ccsc3)sc2c(=O)n1C | 3862
CC1(C(=O)O)CCCN1C(=O)c1ccc(Cl)cc1Cl (centres undefined) | 3382
COc1ccc(NC(=O)CSc2nnnn2-c2cccc(OC)c2)cc1 | 3895
CC1(Cc2ccccc2OC(F)(F)F)C(=O)Nc2ccc(S(=O)(=O)NC3CCCCC3)cc21 (centres undefined) | 3549
COC(=O)[C@H]1C[C@@]2(O)CN(S(=O)(=O)c3ccc(C)cc3)C[C@@]2(OC(=O)NCc2ccc(OC)c(OC)c2)C[C@H]1C(=O)OC | 3763
CC1=C(C(=O)N(C)C)CC(CC(=O)NC2CCCCC2)C(=O)N1CCC1=CCCCC1 (centres undefined) | 3367
O=c1[nH][nH]c2c1[C@H](C1CCCC1)O[C@H](CCc1ccccc1)C2 | 5750
COc1cc(Nc2ccn3nc(-c4ccc(F)cc4)cc3n2)cc(OC)c1OC | 3468
CC(N)c1csc(Nc2ccc(C(=O)NCCO)cc2)n1 (centres undefined) | 3722
Cc1ccc(F)c(S(=O)(=O)NC(=O)C2(C)CCN2C(=O)C/C=C/c2ccccc2)c1 (centres undefined) | 3752
NS(=O)(=O)c1ccc(NC(=S)Nc2ccc(S(=O)(=O)Nc3nccs3)cc2)cc1 | 5914
CCCc1nc2ccc(Br)cn2c1Cc1ccccc1 | 4855

Following part
SMILES | Bead autofluor
CC1(C(=O)NCc2cccc(C(F)(F)F)c2)CCN1Cc1ccc(-c2ccccc2)o1 (centres undefined) | 4059
CC[C@@H]1Cc2[nH]c(=O)[nH]c(=O)c2[C@H](c2ccc(Cl)cc2)O1 | 6034
COc1cccc(CNC[C@H]2O[C@@H](n3ccc(N)nc3=O)[C@H](O)[C@@H]2O)c1OCc1ccc(F)cc1Cl | 3031
COCCN1C[C@@H](CO)O[C@@H](n2cnc3c(N4CCN(C)CC4)ncnc32)C1 | 2786
Nc1nc2c(ncn2[C@@H]2O[C@H](CNC(=O)[C@H](N)Cc3cncn3COCc3ccccc3)[C@@H](O)[C@H]2O)c(=O)[nH]1 | 5353
Cc1cc(C)n2c(SCC(=O)N(CCC#N)c3ccc4c(c3)OCCO4)nnc2n1 | 2931
COC(=O)C1=C(c2ccc(OCc3ccccc3)cc2)C[C@@H]2CC[C@H]1N2C(=O)NCc1ccccc1C(F)(F)F | 3849
N#Cc1ccc(S(=O)(=O)N2CCCCC2c2cc(C(=O)N3CCOCC3)no2)cc1 (centres undefined) | 3333
O=C1NC[C@H](CCCCN2CCN(CCc3ccc(O)cc3)C(=O)C2=O)N(CCC2CCCCC2)C1=O | 5051

Look-ups from the list.
Bead autofluor with COCCNc1nc2cc(-c3ccsc3)sc2c(=O)n1C : 3862
Bead autofluor with CCCCCCN1C[C@@H](O)[C@H](n2cc(COC(=O)c3ccccc3)nn2)C[C@@H]1c1ccc(Cl)cc1 : 3773
Bead autofluor with Cc1occc1C(=O)N(C)CC1CCCN(CCc2ccc(Cl)cc2)C1 (centres undefined) : 3307
Bead autofluor with O=S(=O)(c1ccc(SCc2c(F)cccc2Cl)nc1)N1CCCC1 : 3396
Bead autofluor with Cc1cccc(NC(=O)c2nc[nH]c2C(=O)N[C@@H](C)CO)c1 : 3505
Bead autofluor with CCc1ccc2cc(C)cnc2n1 : 5856
